Compound activity from PubChem.
PAFAH2 inh: inhibitors of human PAFAH2; recombinant PAFAH2, FP-rhodamine activity probe, fluorescence polarization; inhibition, % at 3.39 µM; 0.99% of 340,000 active; AID 492956;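 active = inhibition above the mean over all tested compounds plus 3 SD, cut at about 30% in these data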;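 note: inhibitors block probe labeling of enzyme so polarization drops; 0% = enzyme with DMSO and 100% = wells lacking PAFAH2 protein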
PAFAH1B3 FP inh: inhibitors of human PAFAH1B3 | recombinant PAFAH1B3, FP-rhodamine probe, fluorescence polarization | inhibition, % at 3.39 µM | AID 492972 | 0.28% of 340,000 active | Q15102;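 active = inhibition above the screen-wide average of all tested compounds plus 3 SD, cut at about 25% in these data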;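 note: 0% = enzyme with DMSO only and 100% = wells lacking PAFAH1B3 protein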
Target sequence (Q15102 whole entry, looked up): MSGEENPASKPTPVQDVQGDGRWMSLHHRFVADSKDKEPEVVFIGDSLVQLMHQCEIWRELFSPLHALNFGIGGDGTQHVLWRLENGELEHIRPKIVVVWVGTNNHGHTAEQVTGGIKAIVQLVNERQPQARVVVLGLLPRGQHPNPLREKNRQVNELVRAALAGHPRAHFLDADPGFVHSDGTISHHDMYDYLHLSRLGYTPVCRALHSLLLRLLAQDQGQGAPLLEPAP
LYPLA2 inh: blocks human lysophospholipase 2, a PME1 counter-screen. recombinant LYPLA2, FP-Rh probe fluorescence polarization. inhibition, % at 5.9 µM. 0.38% of 320,000 active. AID 2177;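 active = inhibition above the screen-wide mean plus 3 SD, limit set per campaign, cut at about 26% in these data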;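 note: 0% = LYPLA2 with DMSO and 100% = wells lacking LYPLA2 enzyme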
Target sequence (O95372 whole entry, looked up): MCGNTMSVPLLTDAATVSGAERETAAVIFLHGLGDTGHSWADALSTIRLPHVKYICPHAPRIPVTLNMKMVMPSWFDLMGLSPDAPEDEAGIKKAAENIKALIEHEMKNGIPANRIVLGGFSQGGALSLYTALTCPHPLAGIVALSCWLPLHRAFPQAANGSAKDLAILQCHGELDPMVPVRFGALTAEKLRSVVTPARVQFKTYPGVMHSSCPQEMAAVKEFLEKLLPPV
ZTA counter: blocks Epstein-Barr virus ZTA, an EBNA-1 counter-screen; P03206; ZTA-DNA binding, fluorescence polarization; inhibition, % at 11 µM; 0.15% of 320,000 active; AID 2234; in the data active = inhibition above about 33%
Target sequence (P03206 whole entry, looked up): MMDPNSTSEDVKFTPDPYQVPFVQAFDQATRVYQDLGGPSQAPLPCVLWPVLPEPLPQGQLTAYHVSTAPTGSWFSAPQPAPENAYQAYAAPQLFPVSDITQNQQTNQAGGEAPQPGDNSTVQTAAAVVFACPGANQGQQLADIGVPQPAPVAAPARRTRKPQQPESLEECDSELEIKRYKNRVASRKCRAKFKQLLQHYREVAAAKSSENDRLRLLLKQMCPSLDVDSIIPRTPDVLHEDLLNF
EBNA-1 inh: blocks EBNA-1 binding to DNA | 0.34% of 300,000 active | inhibition, % at 14.8 µM | EBNA-1 DNA binding, fluorescence polarization | AID 1950; in the data active = inhibition above about 28%
LYPLA1 counter: blocks human lysophospholipase 1, a PME1 counter-screen. O75608. recombinant LYPLA1, FP-Rh probe fluorescence polarization. inhibition, % at 5.9 µM. 0.16% of 320,000 active;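 active = inhibition above the mean of all tested compounds plus 3 SD, set per campaign, cut at about 14% in these data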;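 note: inhibitors block serine hydrolase probe labeling of LYPLA1 so polarization falls; 0% = enzyme with DMSO and 100% = wells lacking LYPLA1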
Target sequence (O75608 whole entry, looked up): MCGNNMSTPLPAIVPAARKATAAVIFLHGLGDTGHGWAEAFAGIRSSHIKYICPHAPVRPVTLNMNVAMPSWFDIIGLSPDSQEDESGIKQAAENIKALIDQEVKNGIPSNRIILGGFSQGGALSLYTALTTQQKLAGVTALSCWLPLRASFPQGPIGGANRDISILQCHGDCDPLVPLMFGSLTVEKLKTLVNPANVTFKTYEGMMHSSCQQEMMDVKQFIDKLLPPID
Numbers without * were called inactive; . = no result given. An excerpt; rates above refer to the full screens.

structure | PAFAH2 inh | PAFAH1B3 FP inh | LYPLA2 inh | ZTA counter | EBNA-1 inh | LYPLA1 counter
C/C(=N/OCO/N=C(\C)c1ccccc1)c1ccccc1 | 4 | -7 | -8 | -15 | 1 | 1
Cn1nc(C(=O)OCC(=O)N2CCc3ccccc32)c2ccccc2c1=O | -4 | 0 | 1 | -18 | -16 | 1
COc1ccc(-n2c3c(c(=O)[nH]c2=O)C(NC(=O)c2ccncc2)(C(F)(F)F)C(=O)N3)cc1 (stereo not given) | -9 | -1 | 6 | 28 | 8 | 3
Cc1nc2cc(F)ccc2n1C1CCN(C(=O)c2ccc(F)cc2F)CC1 | -6 | 3 | -16 | 12 | -1 | 0
c1ccc(C(c2nnnn2C2CCCC2)N2CCCCCC2)nc1 (stereo not given) | 8 | 5 | 0 | 22 | 3 | 0
O=C(NN=Cc1ccc(F)c(F)c1)c1ccc(NS(=O)(=O)c2cccs2)cc1 | 4 | 9 | . | . | . | .
CCc1ccc(-n2c(SCC(=O)Nc3cc(C)[nH]n3)nc3[nH]ncc3c2=O)cc1 | -9 | 9 | 11 | 2 | 2 | 1
Cc1ccc(-c2nn3c(C)nnc3s2)cc1N | 9 | 11 | -3 | 5 | 11 | 0
CCC(=O)N(CCC(Cc1ccccc1)c1ccco1)Cc1ccco1 (stereo not given) | 11 | 0 | 3 | 2 | -9 | 0
Cc1ccc(C2=NNC(C(O)C(O)C(O)C(C)O)S2)cc1 (stereo not given) | 3 | 7 | 8 | 3 | 2 | 0
CCN(CC)CCNc1nc2nonc2nc1NCCN(CC)CC | -2 | 5 | -1 | -1 | -9 | -2
Cc1cccc(N2C(N)=NC(N)=NC23CCCCC3)c1 | 4 | 0 | -9 | 17 | 4 | -3

Single records, from the list above. Order of screens: PAFAH2 inh, PAFAH1B3 FP inh, LYPLA2 inh, ZTA counter, EBNA-1 inh, LYPLA1 counter
c1ccc(C(c2nnnn2C2CCCC2)N2CCCCCC2)nc1 (stereo not given) across the screens: 8, 5, 0, 22, 3, 0
CCN(CC)CCNc1nc2nonc2nc1NCCN(CC)CC across the screens: -2, 5, -1, -1, -9, -2
CCc1ccc(-n2c(SCC(=O)Nc3cc(C)[nH]n3)nc3[nH]ncc3c2=O)cc1 across the screens: -9, 9, 11, 2, 2, 1
COc1ccc(-n2c3c(c(=O)[nH]c2=O)C(NC(=O)c2ccncc2)(C(F)(F)F)C(=O)N3)cc1 (stereo not given) across the screens: -9, -1, 6, 28, 8, 3
O=C(NN=Cc1ccc(F)c(F)c1)c1ccc(NS(=O)(=O)c2cccs2)cc1 across the screens: 4, 9, ., ., ., .

Later entries.
structure | PAFAH2 inh | PAFAH1B3 FP inh | LYPLA2 inh | ZTA counter | EBNA-1 inh | LYPLA1 counter
COc1ccc(-c2cc(-c3n[nH]c(=S)n3-c3ccccc3OC)[nH]n2)cc1 | 4 | 8 | -3 | -6 | 6 | -1
COC(=O)C1=NN(c2ccc(C)cc2)C2C(=O)N(c3ccccc3OC)C(=O)C12 (stereo not given) | -1 | -1 | -4 | -5 | -4 | 1
COC(=O)c1cc2ccsc2n1Cc1cc(=O)n2ccccc2n1 | 4 | -7 | -4 | 4 | -3 | -4
COc1cccc(N/C(SCc2cccc([N+](=O)[O-])c2)=C(/C#N)C(N)=O)c1 | 2 | 5 | 12 | 7 | -4 | 1
O=C(NN=Cc1ccccc1OC(F)F)c1ccc(NS(=O)(=O)c2cccs2)cc1 | 19 | 12 | . | . | . | .
CSc1nc(Oc2ccc3ccccc3c2)c2sccc2n1 | -4 | 2 | 7 | 0 | -5 | 1
COc1ccccc1NC(=S)N1CCc2cc(OC)c(OC)cc2C1 | 3 | -1 | -5 | -8 | -3 | -6
CCn1c(CN2CCOCC2)nnc1SCC(=O)Nc1ccc(C)cc1 | 0 | 3 | -2 | -1 | 4 | -2
CCc1c(C)sc(NC(=O)c2cccs2)c1C(=O)OC(C)C | 0 | 5 | -8 | 14 | 8 | -5
O=C1CCCC(=O)C1C(c1ccc(Cl)cc1)C1C(=O)CCCC1=O | 4 | 4 | -5 | -7 | . | -4
O=C(O)c1ccc(S(=O)(=O)N2CCSCC2)cc1 | 2 | -4 | 3 | 11 | -1 | -3
Cn1c(N)c(C(=O)COC(=O)c2ccc(OC(F)F)cc2)c(=O)n(C)c1=O | -2 | 7 | 6 | -3 | . | 1
O=c1c(Cl)c(NS(=O)(=O)c2ccccc2)cnn1-c1ccccc1 | 7 | 8 | 5 | -8 | -9 | -1
COc1ccc(C(=O)N2CCC(n3c(C)nc4cc(F)ccc43)CC2)cc1OC | 6 | 5 | 5 | 1 | -3 | -3
O=S(=O)(c1ccccc1Cl)N1CCC(O)(c2ccc3c(c2)OCO3)CC1 | 9 | 5 | 3 | -1 | 13 | 2
OC1CN=C2Sc3ccccc3N2C1 (stereo not given) | 4 | 8 | 1 | 1 | 2 | 0
CCOc1ccc(-c2cc(C(=O)O)c3ccccc3n2)c(OCC)c1 | 1 | 5 | -3 | -13 | 3 | -2
C=C1CCN([C@@H](CC(C)C)C(=O)N2CCOCC2)S(=O)(=O)c2ccccc21 | -9 | -1 | -1 | -5 | 12 | 0
CSc1n[nH]c(NCc2cccs2)n1 | 3 | 12 | 12 | -12 | -2 | 1
O=C(O)c1cc2ccc3ccccc3c2oc1=O | 9 | 3 | 1 | -15 | -7 | 1
COc1ccc2cc(C(c3nnnn3C3CCCC3)N3CCc4ccccc4C3)c(=O)[nH]c2c1 (stereo not given) | 4 | 7 | 4 | -9 | 3 | -2
CC(C)(C)c1ccc(OCC(=O)NC2CCS(=O)(=O)C2)cc1 (stereo not given) | -1 | -2 | 3 | -13 | 10 | 0
COC(=O)c1cccc(NC(=O)c2ccc(S(=O)(=O)N3CCN(C)CC3)cc2)c1 | 4 | 0 | 3 | 1 | -14 | 1
O=C(O)c1cccc(Nc2nc3ccccc3nc2NS(=O)(=O)c2ccc(F)cc2)c1 | -4 | 1 | . | . | . | .
CC(C)(C)N(Cc1ccccc1)C(=O)c1ccc2c(c1)OCCO2 | 8 | 5 | -2 | 8 | 1 | 1
O=C(COC(=O)CC1c2ccccc2CCN1S(=O)(=O)c1ccc(F)cc1)Nc1ccccc1 (stereo not given) | 26 | 7 | -5 | -10 | 4 | -5
CCOC(=O)c1sc(=S)n2c1[nH]c(=O)c1ccc(C(=O)OC)cc12 | 9 | 15 | 9 | 10 | 10 | -2
CCc1ccc(S(=O)(=O)Nc2ccc(-c3nc4cccnc4s3)cc2)s1 | 9 | 1 | -7 | 10 | 3 | -4
C=CCOc1ccc(/C(CC)=N/O)c(OC)c1 | 2 | 2 | -1 | -12 | -3 | -1
CN(Cc1ccccc1)C(=O)c1ccc2c(c1)OCO2 | 5 | 5 | 2 | -4 | -6 | 3
Cc1c(N=C2NC(=O)C(CC(=O)Nc3ccc(Cl)cc3)S2)c(=O)n(-c2ccccc2)n1C (stereo not given) | 5 | 3 | 0 | 12 | -5 | 3
Cc1cccc(-n2cnc3cc(C(=O)N4CCCCC4)ccc32)c1 | -5 | 2 | 3 | -18 | -14 | -1
COc1ccc(/C=C/C(=O)Nc2sc3c(c2C(=O)NCc2cccnc2)CCCC3)cc1 | -6 | 6 | 0 | 0 | -2 | -3
Cc1cccc(-c2nnc(SCC(=O)O)n2Cc2ccccc2)c1 | 7 | 11 | -10 | -5 | -3 | -6
COc1cccc(Nc2nc3ccccc3nc2-n2nc(C)cc2C)c1 | 1 | -5 | -3 | -5 | 0 | -1
C=CCN(CC=C)C(=O)Nc1ccc2nc(C)sc2c1 | -2 | -5 | 0 | -5 | -2 | 0
C/C(=N\NC(=O)c1ccc(NS(=O)(=O)c2cccs2)cc1)c1ccccc1 | 4 | -2 | 4 | -5 | 14 | 2
COc1cc(NC(=O)COC(=O)Cc2ccsc2)cc(OC)c1 | -8 | 10 | 1 | -24 | . | 0
COC(=O)c1cccc(S(=O)(=O)N2CCC(NC(=O)Nc3cccc(F)c3)CC2)c1 | -2 | -2 | -2 | 2 | 36* | -5
COc1ccccc1N1C(=O)C2C(C(=O)c3ccccc3)=NN(c3ccc(Br)cc3)C2C1=O (stereo not given) | . | . | -8 | -3 | -5 | -7
CCOc1ccc2c(c1)/C(=C(\C(Cl)=C(Cl)Cl)[N+](=O)[O-])N2 | 0 | 0 | -1 | 6 | 12 | 2
CN(Cc1ccccc1)C(=O)c1ccc2c(c1)OCCO2 | -2 | 8 | 7 | -26 | -4 | 4
COc1ccccc1C(CCN(Cc1ccccc1)C(C)=O)c1ccco1 (stereo not given) | 1 | 9 | 1 | 8 | -4 | 0
CC(NC(=O)c1ccc(Cl)cc1)C(=O)NC1=NCCS1 (stereo not given) | 5 | 4 | 7 | -4 | 6 | 3
O=C1CCC/C(=N/NC(=O)c2ccc(NS(=O)(=O)c3cccs3)cc2)C1 | 6 | 9 | 3 | 8 | 11 | 2
CC(=O)Nc1cccc(/C(C)=N/NC(=O)c2ccc(NS(=O)(=O)c3cccs3)cc2)c1 | -1 | 4 | 4 | 6 | -3 | -5
COc1ccc(-c2nnc(S/C(=C/c3ccc(Cl)cc3)C(=O)O)o2)cc1 | 4 | 3 | -1 | -4 | -9 | -4
COc1cc([N+](=O)[O-])ccc1NC(=O)NCc1ccccn1 | 5 | 6 | 1 | 4 | 9 | -1
COc1ccc(N/N=C(/C(N)=O)C2=NC(C)(C)Cc3ccccc32)cc1 | 5 | 2 | 4 | 8 | 13 | 4
COc1cccc(NC(=O)c2cc([N+](=O)[O-])ccc2NC(=O)CNCC2CCCO2)c1 (stereo not given) | -6 | 1 | -6 | -12 | 1 | -6
Cc1cc(C(C)(C)C)c(OC(=O)[C@@H]2OC(c3ccccc3)=C[C@H]2c2ccccc2)c(C(C)(C)C)c1 | 0 | 12 | -2 | 1 | . | -6
O=C(N/N=C/c1ccncc1)c1ccc(NS(=O)(=O)c2cccs2)cc1 | 6 | -2 | 7 | -6 | 6 | 5
COc1cc([N+](=O)[O-])c(OC)cc1SCc1n[nH]c(=S)n1-c1ccc(C)cc1 | 6 | 0 | -2 | -4 | 1 | -1
Cc1nc(NC(=O)c2ccccc2)sc1Cc1ccc2c(c1)OCO2 | -5 | -4 | -11 | -12 | 8 | -14
C/C(=C\C(=O)c1ccc(Br)cc1)Nc1ccc(Cl)cc1 | -2 | 6 | 4 | -5 | -4 | 0
CCOc1cc(O)c(-c2[nH]ncc2-c2nc(C)cs2)cc1CC | -6 | 1 | 0 | -9 | 4 | -3

Reformatted: entries from further up
Each structure is followed by: PAFAH2 inh	PAFAH1B3 FP inh	LYPLA2 inh	ZTA counter	EBNA-1 inh	LYPLA1 counter
- COc1cccc(Nc2nc3ccccc3nc2-n2nc(C)cc2C)c1
→ 1	-5	-3	-5	0	-1
- COc1ccccc1C(CCN(Cc1ccccc1)C(C)=O)c1ccco1 (stereo not given)
→ 1	9	1	8	-4	0
- COc1cc(NC(=O)COC(=O)Cc2ccsc2)cc(OC)c1
→ -8	10	1	-24	.	0
- OC1CN=C2Sc3ccccc3N2C1 (stereo not given)
→ 4	8	1	1	2	0
- O=C(O)c1cc2ccc3ccccc3c2oc1=O
→ 9	3	1	-15	-7	1
- O=C(NN=Cc1ccccc1OC(F)F)c1ccc(NS(=O)(=O)c2cccs2)cc1
→ 19	12	.	.	.	.
- Cc1nc2cc(F)ccc2n1C1CCN(C(=O)c2ccc(F)cc2F)CC1
→ -6	3	-16	12	-1	0
